# Rango release inh: qHTS Assay for Inhibitors of RanGTP induced Rango (Ran-regulated importin-beta cargo) - Importin beta complex dissociation. Potency, µM (series often up to 46.1 µM), without a hit: top-dose activity change, negative = inhibition. 0.071% of 340,000 active. Biochemical FRET Rango-importin beta, RanGTP-induced dissociation. Snurportin-1 (Homo sapiens) + GTP-binding nuclear protein Ran (Homo sapiens) + Importin …; active means falling FRET ratio curve, often poorly fitted, with flat reads before Ran was added; inconclusive means other falling curves, or compound fluorescence or quenching; inactive means flat or rising ratio curve;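 note: potency is the fitted concentration of half-maximal effect; % of control where 0% means no effect; nearly all actives have a fitted effect of over 45% in size; -100% = wells without RanGTP and RCC1; the record marks most hits as doubtful in a second field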
#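 Compounds preincubate 5 min with complex of recombinant Rango and importin beta in PBS with 1 mM DTT. Ran (0.6 uM) loaded with 2 mM GTP plus 0.2 uM RCC1 starts dissociation; FRET is recorded 45 min later.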
# GLA inh pH 4.5: qHTS Assay for Inhibitors of Human alpha-Galactosidase at pH 4.5; Alpha-galactosidase A (Homo sapiens), P06280; purified enzyme, 4-MU-alpha-Gal fluorescence, pH 4.5; activity change, negative = inhibition, % at 105 µM; 230,000 tested, under 10 active; AID 1467, 2008; inconclusive = small, poorly fitted or top-dose-only inhibition, or a rising curve; inactive = flat fitted curve, though single readings scatter; no compound was filed as active;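 note: 0% = full activity with enzyme and -100% = basal without enzyme; dose as in the result columns while the protocol names 77 µM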
# Target sequence (P06280 whole entry, looked up): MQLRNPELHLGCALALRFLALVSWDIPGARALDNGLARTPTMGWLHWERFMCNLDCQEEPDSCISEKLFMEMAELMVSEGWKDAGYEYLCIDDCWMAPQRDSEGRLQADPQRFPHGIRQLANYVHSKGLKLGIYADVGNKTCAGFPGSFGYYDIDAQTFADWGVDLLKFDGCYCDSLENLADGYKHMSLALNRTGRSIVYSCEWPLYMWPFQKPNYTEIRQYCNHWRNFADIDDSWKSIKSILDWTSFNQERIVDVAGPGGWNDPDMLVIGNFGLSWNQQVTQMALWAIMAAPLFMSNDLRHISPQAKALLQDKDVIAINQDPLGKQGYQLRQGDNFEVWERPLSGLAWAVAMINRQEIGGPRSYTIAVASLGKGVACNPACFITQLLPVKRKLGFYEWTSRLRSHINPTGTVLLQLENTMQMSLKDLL
# Rango complex inh: qHTS Assay for Inhibitors of Rango (Ran-regulated importin-beta cargo) - Importin beta complex formation; Importin subunit beta-1 (Homo sapiens), Q14974; Rango CFP/YFP FRET sensor + importin beta, 45 min; Potency, µM (top dose mostly 92.2 µM), inactives show top-dose inhibition of complex formation; 0.031% of 340,000 active; AID 540263, 2011; active = rising FRET ratio curve, often small or poorly fitted; inconclusive = mostly compound fluorescence or quenching in the first reads; inactive = flat curves in all reads;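 note: potency is the fitted concentration of half-maximal effect; 0% = DMSO wells and 100% = buffer wells lacking importin beta; nearly all actives have a fitted effect of over 15% in size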
#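 Inhibition scored from the CFP 486 nm/YFP 530 nm FRET ratio 45 min after adding 0.125 microM importin beta to 50 nM Rango biosensor preincubated 5 min with compound (room temperature, PBS with DTT, Tween-20, BSA). No-importin wells as positive control.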
# miR-21 reporter: qHTS Assay for Modulators of miRNAs and/orActivators of miR-21 | Potency, µM (series often up to 38.3 µM), inactives show at the highest dose reporter change, positive = more light | 340,000 tested, under 10 active | HeLa miR-21 FLuc reporter, luciferase, 48 h; active = well fitted rising curve with a large enough effect; inconclusive = small, poorly fitted or top-dose-only effect; inactive = no such curve, though single readings can be large or run the other way;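 note: % of control where 0% means no effect; miR-21 action dims this reporter so a rising signal means less miR-21 action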
#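 Compounds were titrated across several concentrations (up to approximately 40 uM) and incubated 48 hours with HeLa miR-21-FLuc reporter cells (miR-21 target sequence downstream of FLuc, endogenous miR-21). Readout was firefly luciferase luminescence after lytic detection reagent.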
# Numbers without * were called inactive; ? = inconclusive; . = not tested or not shown.
Rango release inh,GLA inh pH 4.5,Rango complex inh,miR-21 reporter,compound
?,.,?,15.8%,CCc1cc2c(CN3CCN(Cc4ccccc4)CC3)cc(=O)oc2cc1O
-6.9%,8.8,0.5%,-9.8%,Cc1cc(SC(C)C(=O)Nc2c(C)n(C)n(-c3ccccc3)c2=O)nc2ccccc12 (configuration not stated)
-8.1%,0.8,1.7%,-3.7%,CC(C)CC(=O)Nc1cc(NC(=O)CC(C)C)cc(C(=O)NC(C)(C)C)c1
0.8%,-2.4,3.6%,-26.6%,CC(C)(C)CNc1cc(N2CCOCC2)ccc1[N+](=O)[O-]
-8.4%,-0.2,?,-2.4%,CCOC(=O)CSC1=N/C(=C\c2cc(OC)c(OC)c(OC)c2)C(=O)N1C
-2.3%,.,-2.5%,.,CCN(CC(=O)Nc1cc(Cl)ccc1C)C(=O)Cc1sc(C)nc1-c1ccc(F)cc1
-13.9%,.,0.4%,.,O=C1c2c(O)cc(O)cc2O[C@H](c2ccc(O)cc2)[C@H]1O
-3.7%,-6.8,2.7%,0.6%,Cc1ccc(C)c(-n2c(CNc3ccc(F)cc3)nnc2SCC(N)=O)c1
-8.5%,2.4,?,-9.4%,COc1ccc(C2C(C(C)=O)=C(C)N=c3s/c(=C\c4ccco4)c(=O)n32)c(OC)c1 (configuration not stated)
-9.4%,.,8.2%,12.3%,O=C(NC(Nc1ccccn1)C(Cl)(Cl)Cl)c1ccccc1 (configuration not stated)
7.3%,.,0.5%,-0.7%,Cc1onc(-c2ccccc2)c1C(=O)N1CCN(c2ccccn2)CC1
19.2%,-8.4,-1.4%,-5.3%,CCOC(=O)Cc1csc(NC(=O)CSc2cc(Cl)ccc2Cl)n1
-11.7%,.,4.7%,.,COc1ccc(C(=O)NCC(c2ccco2)N2CCc3ccccc32)cc1 (configuration not stated)
.,-11.0,.,-0.5%,O=C(CCNS(=O)(=O)c1cccc2nsnc12)N1CCN(c2ccccn2)CC1
?,.,?,-58.7%,COc1ccc2c(/C=N/Nc3ccc(C(=O)O)cc3)c[nH]c2c1
-6.0%,5.8,0.2%,-8.2%,CC(=O)c1ccc(NC(=O)C(C)N(C)CC(=O)Nc2ccc(N3CCOCC3)cc2)cc1 (configuration not stated)
1.7%,-8.1,-2.6%,-2.0%,CN(C)/C=C1/NC(=S)NC1=O
-13.7%,4.0,-1.7%,2.6%,N#Cc1c(C(F)(F)F)cc(-c2ccc(F)cc2)nc1SCC(=O)O
-7.8%,1.5,-1.5%,-4.8%,CC(C)(O)C#Cc1ccc(C(=O)N2CCC(C(N)=O)(N3CCCCC3)CC2)cc1
0.8%,.,-2.3%,.,CC(=O)Nc1ccc(SCC(=O)NC(=O)c2ccc(S(=O)(=O)N(C)C)cc2)cc1
-5.0%,-10.1,-4.1%,-8.5%,CC1CCN(C(=O)c2ccc(-n3cnnn3)cc2)CC1
?,4.9,?,-1.5%,CC(C)(CO)NS(=O)(=O)c1ccc2c(c1)oc(=O)c1cc(S(=O)(=O)NC(C)(C)CO)ccc12
-2.8%,-11.4,-3.6%,-25.4%,Cc1cc(C(=O)COC(=O)CC2Sc3ccccc3NC2=O)c(C)n1-c1ccccc1 (configuration not stated)
-1.0%,0.9,-0.8%,3.7%,COc1ccc(/C=N/NC(=O)c2cc(-c3ccc4c(c3)OCO4)n[nH]2)cc1OC
-6.6%,2.0,1.3%,-17.2%,CC1(C)Cc2c(c(-c3ccco3)nc3sc4c(NCCO)ncnc4c23)CO1
4.0%,.,5.3%,-8.8%,COCCOC1CCN(C(=O)c2cc(COc3ccc(F)cc3F)on2)CC1
28.4%,-10.3,4.8%,-14.0%,CN(C(=O)c1ccccc1Cl)C1CCCCC1
-10.4%,.,-2.2%,-8.2%,CCCOc1ccc(/C(O)=C2/C(=O)C(=O)N(c3ccccn3)C2c2ccc(OC)cc2)cc1C (configuration not stated)
-6.6%,3.9,?,0.3%,Cn1c(NC(=O)c2ccccc2)c(-c2cccs2)c(=O)c2ccccc21
-8.1%,.,-0.3%,0.3%,CSc1ccccc1NC(=O)CN(C)Cc1c(O)ccc2ccccc12
-11.8%,.,1.0%,5.3%,Cc1ccc(OCCCCc2c(C)n[nH]c2C)cc1
-8.4%,.,0.6%,1.4%,CC1(C)Cc2c(cnn2-c2cccc(F)c2)C(NC(=O)CSc2ccncc2)C1 (configuration not stated)
-1.1%,-12.9,0.1%,0.4%,CCC(C)(C)n1nnnc1C(c1ccc(F)cc1)N1CCC(C(N)=O)CC1 (configuration not stated)
1.8%,-6.9,-4.3%,-26.8%,O=C(O)c1cccc(N2C(=O)/C(=C/c3ccc([N+](=O)[O-])cc3)C=C2c2ccccc2)c1
33.0%,.,-0.4%,0.1%,Cc1ccc2c(c1)N(C(=O)CCC(=O)NCc1ccccn1)CC(C)O2 (configuration not stated)
-2.4%,.,-1.2%,.,COc1ccc2[nH]c3c(c2c1)CCN1C(=O)C(CC(=O)NCCN2CCOCC2)C[C@H](C(=O)N2CCCCC2)[C@@]31C (some centres not stated)
3.9%,5.8,2.0%,-3.0%,CC(NC(=O)C1CCC(CNc2c(N3CCOCC3)c(=O)c2=O)CC1)c1ccccc1 (configuration not stated)
7.5%,.,-1.2%,.,COc1ccc(C(=O)COC(=O)[C@H](C)NS(=O)(=O)c2ccc(NC(C)=O)cc2)cc1OC
3.2%,4.4,-3.1%,1.2%,CCn1cc([N+](=O)[O-])c(C(=O)N2N=C3/C(=C/c4cccs4)CCCC3C2c2cccs2)n1 (configuration not stated)
1.5%,-2.9,1.7%,-45.5%,Nc1ccc2oc(CCc3ccccc3)nc2c1
-22.5%,2.7,1.2%,-3.8%,Fc1ccccc1N1CCN(C(c2ccccn2)c2nnnn2C2CCCCC2)CC1 (configuration not stated)
2.1%,.,4.1%,-3.0%,CCOC(=O)C1CCN(Cc2cc(=O)oc3cc(C)c(Cl)cc23)CC1
-17.9%,0.0,0.7%,13.5%,COC(=O)C(C)N(C(=O)c1cccc(Cl)c1)c1c(C)cccc1C (configuration not stated)
7.3%,9.2,4.1%,17.3%,CC(C)(C)c1ccc(-c2n[nH]c(=S)n2C2CCCC2)cc1
17.9%,1.2,0.3%,-2.5%,C#CC1(NC(=O)N(C)C)CCCCC1
-5.0%,.,-3.7%,-4.4%,COc1ccc(NC(=O)CCNC(=O)c2ccco2)cc1OC
1.6%,2.6,5.8%,0.3%,O=C(NC1CCSC1=O)c1cccc(Cl)c1 (configuration not stated)
-7.7%,-5.3,0.7%,0.6%,CC(C)(C)NC(=O)NC(=O)COC(=O)CNS(=O)(=O)c1ccc(Br)cc1Cl
30.6%,-8.3,7.2%,-2.2%,CCCn1c(=O)[nH]c(=O)c2c1nc(-c1ccc3c(c1)OCCO3)n2CCN1CCOCC1
-13.4%,.,-0.5%,2.3%,CC(=O)c1ccc(OCC(=O)Nc2ccccc2N2CCCC2)cc1
1.6%,-11.7,2.7%,0.9%,Fc1ccccc1COc1ccccc1/C=N/Nc1nc(N2CCCC2)nc(N2CCCC2)n1
4.3%,-2.4,7.0%,0.1%,COc1ccc(N(C(=O)c2ccccc2OC)C2C=CS(=O)(=O)C2)c(OC)c1 (configuration not stated)
-13.4%,-1.1,-1.9%,-7.5%,CCn1nnnc1SCC(=O)c1cccc(OC)c1
-6.5%,-1.6,-1.2%,-14.5%,Cc1cc(C(=O)N2CCc3ccccc32)c2ccccc2n1
-2.4%,.,3.7%,-9.2%,COc1ccc([N+](=O)[O-])cc1NCC(=O)c1ccc(C)cc1
-7.2%,.,4.6%,-1.9%,OCC[C@@H]1C[C@@H](O)[C@H](O)[C@@]2(CCCc3ccccc3O2)O1

# Complete entries from above. Screens in order: Rango release inh, GLA inh pH 4.5, Rango complex inh, miR-21 reporter
# Entry for Cc1cc(C(=O)N2CCc3ccccc32)c2ccccc2n1 : -6.5%, -1.6, -1.2%, -14.5%
# Entry for Fc1ccccc1COc1ccccc1/C=N/Nc1nc(N2CCCC2)nc(N2CCCC2)n1 : 1.6%, -11.7, 2.7%, 0.9%
# Entry for CCCn1c(=O)[nH]c(=O)c2c1nc(-c1ccc3c(c1)OCCO3)n2CCN1CCOCC1 : 30.6%, -8.3, 7.2%, -2.2%
# Entry for OCC[C@@H]1C[C@@H](O)[C@H](O)[C@@]2(CCCc3ccccc3O2)O1 : -7.2%, ., 4.6%, -1.9%
# Entry for CC(=O)c1ccc(OCC(=O)Nc2ccccc2N2CCCC2)cc1 : -13.4%, ., -0.5%, 2.3%

# More results follow.
Rango release inh,GLA inh pH 4.5,Rango complex inh,miR-21 reporter,compound
-2.5%,2.6,2.4%,-2.2%,COc1ccc(CCNC(=O)c2ccc3c(=O)n(Cc4ccco4)c(=S)[nH]c3c2)cc1OC
0.3%,2.9,-1.3%,-13.5%,COc1ccc(N2CCN(c3oc(COc4ccc(Cl)cc4)nc3C#N)CC2)cc1
-22.1%,3.7,-0.3%,-1.8%,CN(C)S(=O)(=O)Nc1ccccc1F
-14.3%,3.1,-0.9%,-13.1%,O=C(Nc1ccccc1)c1cccc(-c2nnc(-c3ccccc3)o2)c1
7.7%,-9.4,-3.8%,-1.4%,Cc1ccc(C(=O)NC(O)C(Cl)Cl)cc1 (configuration not stated)
4.6%,1.6,-3.2%,-1.2%,CCC1(CC)NC(=S)N(Nc2ccccc2)C1=O
4.1%,-1.2,-2.9%,-0.1%,O=C1c2ccccc2C(=O)C1c1ccncc1
4.0%,0.9,1.5%,-6.1%,Cc1cc(Cl)ccc1NC(=S)NCc1ccccc1
18.1%,-10.7,0.6%,1.5%,C=CCN(C(=O)Cn1ncc2c1-c1cc(C)ccc1OC2)c1ccccc1
3.0%,.,0.3%,0.8%,CC(=O)c1cccc(NC(=S)N2CCN(c3ccccn3)CC2)c1
34.0%,-13.1,-2.2%,-1.5%,O=C(NCc1ccco1)C1CCCN(S(=O)(=O)c2cnc[nH]2)C1 (configuration not stated)
14.2%,-7.6,-0.5%,-26.0%,Cc1ccccc1Nc1nc(N)nc(COC(=O)CCS(=O)(=O)c2ccccc2)n1
14.8%,-6.2,-3.5%,-6.8%,N#CNC(=Nc1cccc(F)c1)SCc1ccccc1F
-7.1%,7.0,-7.4%,18.4%,CCCC(=O)OCCNc1cc(SCc2ccco2)c2nonc2c1[N+](=O)[O-]
12.6%,.,1.0%,1.3%,CCc1nnc(NC(=O)CSCc2cc(=O)n3nc(C(C)C)sc3n2)s1
12.5%,.,0.1%,-33.8%,CCc1ccc(C(=O)COC(=O)c2ccccc2OC)cc1
19.4%,6.0,-3.8%,-5.1%,O=S(=O)(Cc1ccc(Cl)cc1)N1CCN(Cc2ccccc2)CC1
-14.3%,-2.1,0.2%,-8.1%,CCOc1ccc2sc(NS(=O)(=O)c3ccc(N)cc3)nc2c1
1.9%,.,-5.1%,.,CC(OC(=O)c1cccc(S(=O)(=O)N2CCCC2)c1)C(=O)NC1CCCCC1C (configuration not stated)
-12.9%,-6.4,-4.9%,-2.7%,CCc1ccc(-n2c(C)n[nH]c2=S)cc1
-0.8%,-4.2,3.0%,6.2%,Cc1ccc(/C=N/NC(=O)c2ccc3c(c2)OCCO3)s1
11.7%,4.0,2.1%,-9.6%,CCCCCCC1C(C#N)=C(N)OC2=C1C(=O)CC(C)(C)C2 (configuration not stated)
15.6%,12.0,0.2%,-5.9%,CCOC(=O)Cc1csc(NC(=O)CSc2nnnn2-c2ccc(C)c(C)c2)n1
?,.,?,.,COc1ccc(-c2ccc3c(=O)cc(-c4ccsc4)oc3c2)cn1
6.6%,2.9,-1.2%,-0.8%,CC12CN3CCN(CC(C3)/C1=N\N=C1/C3CN4CCN(C3)CC1(C)C4)C2
-2.7%,10.0,2.8%,4.7%,Cn1c(=O)n(C)c2cc(CN3C(=O)OC(C)(C)C3(C)O)ccc21 (configuration not stated)
7.4%,3.4,4.2%,3.5%,N#CCC(=O)Nc1cc(C(F)(F)F)ccc1N1CCOCC1

# Screens from PubChem.

# An excerpt (hit frequency here may not be typical).
